Yeast UUG start = alters start codon recognition fidelity in yeast; S. cerevisiae UUG-firefly luciferase reporter, luminescence/redox ratio; activity score, % at 18.7 µM; 0.13% of 350,000 active;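 active = replicate mean at a twofold rise or more, about +100% in these data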;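 also: firefly luciferase made from a UUG start codon reports start codon fidelity; reporter light over untreated wells divided by growth signal over untreated wells; some hits fall short of that in this replicate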
Env fusion inh = blocks HIV Env-driven cell-cell fusion | HeLa-JRFL Env/CEM21 cell fusion, luciferase | inhibition, % at 12.3 µM | 1.1% of 360,000 active;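 active = mean replicate inhibition score of at least 50 and every replicate individually at or above 50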;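 also: 0% = plate neutral controls and 100% = maraviroc near 300 nM; one replicate is shown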
Numbers without * were called inactive; & = joins results of further samples; [ ] = dose if it differs, or a comment. Not all compounds are listed, so the mix of outcomes need not match the whole.

Yeast UUG start	Env fusion inh	structure
8	-9[16.7 µM]	C[C@@H]1CCCCO[C@H](CN(C)S(=O)(=O)c2cn(C)cn2)[C@H](C)CN([C@@H](C)CO)C(=O)c2cc(NC(=O)Nc3ccccc3)ccc2O1
4	-3[16.7 µM]	Cc1ccc(-c2ccc3c(c2)O[C@@H](CN(C)Cc2ccc(C(=O)O)cc2)[C@H](C)CN([C@@H](C)CO)S3(=O)=O)cc1
16	6[16.7 µM]	COc1ccc(NC(=O)N(C)C[C@@H]2Oc3c(NS(=O)(=O)c4ccc(C)cc4)cccc3C(=O)N([C@H](C)CO)C[C@H]2C)cc1
-3	70*[16.7 µM]	COc1ccc(NC(=O)Nc2ccc3c(c2)CC(=O)N([C@H](C)CO)C[C@H](C)[C@H](CN(C)S(=O)(=O)c2cccs2)O3)cc1
-6	-3[16.7 µM]	Cc1noc(C)c1S(=O)(=O)Nc1ccc2c(c1)C(=O)N([C@H](C)CO)C[C@H](C)[C@H](CN(C)S(=O)(=O)c1cn(C)cn1)OCCCC[C@H](C)O2
-1	-7[16.7 µM]	C[C@@H]1CN([C@H](C)CO)C(=O)c2cc(C#CC3(O)CCCC3)cnc2O[C@@H]1CN(C)C(=O)CC1CC1
-1	2[16.7 µM]	C[C@@H]1CN([C@H](C)CO)C(=O)c2cc(/C=C/c3ccccc3)cnc2O[C@H]1CN(C)Cc1cncnc1
7	9[16.7 µM]	O=C(C[C@H]1CC[C@@H](NC(=O)c2ccc3c(c2)OCO3)[C@@H](CO)O1)NCc1ccc(Cl)cc1
-11	-6[16.7 µM]	C[C@H]1CN([C@@H](C)CO)S(=O)(=O)c2ccc(-c3cncnc3)cc2O[C@H]1CN(C)Cc1ccncc1
10	7[16.7 µM]	COCC#Cc1ccc2c(c1)O[C@@H](CN(C)CC1CCOCC1)[C@H](C)CN([C@H](C)CO)S2(=O)=O
-4	-11[16.7 µM]	NCC[C@H]1CC[C@@H](NC(=O)C2CCCC2)[C@@H](CO)O1
10	10[16.7 µM]	COc1cccc(NC(=O)C[C@H]2CC[C@H]3[C@@H](COc4ccc(NC(=O)C5CC5)cc4C(=O)N3C)O2)c1
56	-3[16.7 µM]	CO[C@@H]1CN(C)C(=O)c2cc(NC(=O)Nc3ccc(Cl)cc3)ccc2OC[C@@H](C)N(C)C[C@@H]1C
-15	6[16.7 µM]	C/C=C/c1ccc2c(c1)O[C@@H](CN(C)Cc1ccncc1)[C@H](C)CN([C@H](C)CO)S2(=O)=O
8	15[16.7 µM]	Cc1ccc(S(=O)(=O)Nc2ccc3c(c2)CC(=O)N([C@@H](C)CO)C[C@@H](C)[C@@H](CN(C)S(=O)(=O)c2ccccc2)O3)cc1
-3	7[16.7 µM]	CCCNC(=O)N1[C@H](CO)[C@@H](c2ccc(-c3ccc(C(=O)N(C)C)cc3)cc2)[C@@H]1C#N
3	19[16.7 µM]	C[C@@H]1CN([C@@H](C)CO)C(=O)Cc2cc(NC(=O)Nc3ccccc3)ccc2O[C@H]1CN(C)C(=O)Nc1ccc(F)cc1
25	56*[16.7 µM]	C[C@H](CO)N1C[C@H](C)[C@H](CN(C)Cc2ccccc2)OCCCC[C@H](C)Oc2ccc(NC(=O)Nc3ccc(F)cc3)cc2C1=O
1	-18[16.7 µM]	C[C@@H]1CCCCO[C@H](CN(C)C(=O)Nc2ccc3c(c2)OCO3)[C@H](C)CN([C@H](C)CO)C(=O)c2cc(NS(C)(=O)=O)ccc2O1
-2	2[16.7 µM]	O=C(NCC[C@@H]1CC[C@@H](NC(=O)C2CC2)[C@@H](CO)O1)Nc1ccc(C(F)(F)F)cc1
-1	-11[16.7 µM]	C[C@H]1CN([C@@H](C)CO)C(=O)Cc2cc(NC(=O)C3CCCCC3)ccc2O[C@H]1CN(C)Cc1ccncc1
-9	19[16.7 µM]	O=C(N[C@@H]1CC[C@@H](CCn2cc(-c3ccc(F)cc3)nn2)O[C@@H]1CO)c1cnccn1
6&4	2	C[C@H](CO)N1C[C@H](C)[C@H](CN(C)C(=O)NC2CCCCC2)OCc2cnnn2CCCC1=O
4	20[16.7 µM]	C[C@H](CO)N1C[C@H](C)[C@@H](CN(C)S(=O)(=O)c2cn(C)cn2)Oc2c(NC(=O)Nc3ccccc3)cccc2C1=O
0	-1[16.7 µM]	C[C@H](CO)N1C[C@H](C)[C@H](CN(C)C(=O)c2ccccc2F)Oc2ncc(C#CC(C)(C)O)cc2C1=O
21	-60[16.7 µM]	Cc1ccc(S(=O)(=O)N(C)C[C@H]2OCCCC[C@@H](C)Oc3ccc(N(C)C)cc3C(=O)N([C@@H](C)CO)C[C@@H]2C)cc1
-3	-1[16.7 µM]	C[C@@H](NC(=O)C[C@@H]1CC[C@@H](NC(=O)C2CCC2)[C@@H](CO)O1)c1ccccc1
-13	15[16.7 µM]	CC(C)C#Cc1ccc2c(c1)O[C@H](CN(C)C(=O)c1cnccn1)[C@@H](C)CN([C@@H](C)CO)S2(=O)=O
0	24[16.7 µM]	Cc1ccc(-c2ccc3c(c2)O[C@@H](CN(C)Cc2ccccc2)[C@H](C)CN([C@@H](C)CO)S3(=O)=O)cc1
-2	25[16.7 µM]	C[C@H]1CN([C@@H](C)CO)C(=O)c2cc(NC(=O)Cc3ccccc3)ccc2O[C@@H]1CN(C)Cc1ccc(C(F)(F)F)cc1

New compounds follow
Yeast UUG start	Env fusion inh	structure
18	12[16.7 µM]	C[C@H](CO)N1C[C@H](C)[C@@H](CN(C)Cc2ccncc2)Oc2ccc(NC(=O)Cc3ccccc3)cc2C1=O
-14	-3[16.7 µM]	COc1ccc(NC(=O)Nc2cccc3c2O[C@@H](CN(C)S(=O)(=O)c2ccc(Cl)cc2)[C@H](C)CN([C@H](C)CO)C3=O)cc1
3	-38[16.7 µM]	COc1ccc(S(=O)(=O)N(C)C[C@H]2Oc3c(NS(=O)(=O)c4cn(C)cn4)cccc3C(=O)N([C@@H](C)CO)C[C@@H]2C)cc1
0	1[16.7 µM]	CCC(=O)N1C[C@@H](C)[C@@H](OC)CN(C)C(=O)c2cc(NC(=O)c3cnccn3)ccc2OC[C@@H]1C
4	10[16.7 µM]	Cc1ccc(S(=O)(=O)Nc2ccc3c(c2)C(=O)N([C@@H](C)CO)C[C@H](C)[C@@H](CN(C)C)OCCCC[C@@H](C)O3)cc1
-5	-6[16.7 µM]	CC(C)NC(=O)N(C)C[C@@H]1Oc2ncc(-c3cccc(C#N)c3)cc2C(=O)N([C@@H](C)CO)C[C@H]1C
4	-7[16.7 µM]	C/C=C/c1cnc2c(c1)C(=O)N([C@@H](C)CO)C[C@@H](C)[C@@H](CN(C)C(=O)NC1CCCC1)O2
-22	-9[16.7 µM]	Cc1noc(C)c1NC(=O)Nc1ccc2c(c1)C(=O)N([C@@H](C)CO)C[C@H](C)[C@H](CN(C)C(=O)NC1CCCCC1)O2
32	-22[16.7 µM]	C[C@@H]1CN([C@@H](C)CO)C(=O)c2cc(NC(=O)Nc3ccc(C(F)(F)F)cc3)ccc2O[C@@H](C)CCCCO[C@@H]1CN(C)C
11	12[16.7 µM]	CCc1cnc(N2[C@H](C#N)[C@@H](c3ccc(C4=CCCC4)cc3)[C@@H]2CO)s1
-11	-1[16.7 µM]	O=C(NCC[C@@H]1CC[C@H](NC(=O)C2CCC2)[C@@H](CO)O1)c1cnccn1
18	-280[16.7 µM]	C[C@@H]1CN([C@H](C)CO)C(=O)c2cccc(NC(=O)c3ccc(-c4nccs4)cc3)c2O[C@@H]1CN(C)Cc1ccc(C(=O)Nc2ccccc2N)cc1
-4	3[16.7 µM]	CN1C[C@H](O)COC[C@@H]2O[C@@H](CC(=O)N3CCN(c4ccccc4)CC3)CC[C@H]21
35	21[16.7 µM]	C[C@@H]1CCCCO[C@H](CN(C)S(=O)(=O)c2ccc(F)cc2)[C@H](C)CN([C@H](C)CO)C(=O)c2cc(NS(=O)(=O)c3ccccc3)ccc2O1
-4	26[16.7 µM]	COc1ccc(S(=O)(=O)N(C)C[C@H]2Oc3ccc(NC(=O)Nc4ccc(C(F)(F)F)cc4)cc3CC(=O)N([C@H](C)CO)C[C@@H]2C)cc1
-12	16[16.7 µM]	O=C(C[C@H]1C[C@H]2c3cc(NC(=O)C4CCC4)ccc3O[C@H]2[C@H](CO)O1)NCc1cccnc1
-2	-16[16.7 µM]	CC(C)NC(=O)Nc1ccc2c(c1)C(=O)N([C@H](C)CO)C[C@H](C)[C@@H](CN(C)S(=O)(=O)c1ccccc1)OCCCC[C@H](C)O2
-1	-26[16.7 µM]	CCCC#Cc1ccc2c(c1)O[C@H](CN(C)C(=O)Nc1ccc(OC)cc1)[C@@H](C)CN([C@@H](C)CO)S2(=O)=O
-5	10[16.7 µM]	COCC(=O)N(C)C[C@H]1Oc2ncc(C#Cc3ccccc3)cc2C(=O)N([C@H](C)CO)C[C@H]1C
-15	12[16.7 µM]	COc1ccccc1-c1cnc2c(c1)C(=O)N([C@H](C)CO)C[C@@H](C)[C@H](CN(C)C(C)=O)O2
3	-4[16.7 µM]	O=C(Cc1ccncc1)Nc1ccc2c(c1)[C@H]1C[C@@H](CC(=O)NC3CCCC3)O[C@H](CO)[C@H]1O2
2	-11[16.7 µM]	COc1cccc(NC(=O)N(C)C[C@H]2Oc3ncc(C4=CCCCC4)cc3C(=O)N([C@@H](C)CO)C[C@H]2C)c1
2	0[16.7 µM]	C[C@@H]1CN([C@@H](C)CO)S(=O)(=O)c2ccc(C#Cc3cccc(F)c3)cc2O[C@@H]1CN(C)S(=O)(=O)c1cn(C)cn1
1	-22[16.7 µM]	Cc1noc(C)c1S(=O)(=O)Nc1ccc2c(c1)C(=O)N([C@H](C)CO)C[C@H](C)[C@H](CN(C)C(=O)C1CCCCC1)OCCCC[C@@H](C)O2
-1	12[16.7 µM]	O=C(NCC[C@H]1CC[C@@H](NS(=O)(=O)c2ccc(Cl)cc2)[C@H](CO)O1)c1ccccc1F
-10	-20[16.7 µM]	C[C@@H]1CN([C@@H](C)CO)C(=O)Cc2cc(NC(=O)C3CCCCC3)ccc2O[C@@H]1CN(C)C(=O)Nc1ccc(C(F)(F)F)cc1
-2	-9[16.7 µM]	CN1C(=O)c2cc(NC(=O)c3cccc(F)c3)ccc2OC[C@@H]2O[C@@H](CC(=O)O)CC[C@H]21
-15	-13[16.7 µM]	CCC(=O)Nc1ccc2c(c1)C(=O)N(C)C[C@H](OC)[C@H](C)CN(C(C)=O)[C@@H](C)CO2
-4	9[16.7 µM]	C[C@@H]1CN([C@@H](C)CO)C(=O)Cc2cc(NC(=O)Cn3cnnn3)ccc2O[C@@H]1CN(C)C(=O)NC1CCCCC1
8	-59[16.7 µM]	Cc1cc(C(=O)Nc2cccc3c2O[C@H](CN(C)Cc2ccc(Cl)c(Cl)c2)[C@@H](C)CN([C@H](C)CO)C3=O)n(C)n1

Continued.
Yeast UUG start	Env fusion inh	structure
23	-1[16.7 µM]	CCCNC(=O)N1[C@H](CO)[C@H](c2ccc(C3=CCCC3)cc2)[C@@H]1C#N
-25	4[16.7 µM]	O=C(NCC[C@@H]1CC[C@H](NC(=O)c2cccnc2)[C@@H](CO)O1)Nc1ccc(Cl)cc1
-10	-5[16.7 µM]	COc1ccccc1CNC(=O)C[C@H]1C[C@@H]2c3cc(NC(=O)NC4CCCC4)ccc3O[C@@H]2[C@H](CO)O1
12	11[16.7 µM]	Cc1noc(C)c1NC(=O)N(C)C[C@H]1OCCCC[C@@H](C)Oc2ccc(NS(=O)(=O)c3ccc(Cl)cc3)cc2C(=O)N([C@H](C)CO)C[C@@H]1C
-6	13[16.7 µM]	C[C@@H]1CN([C@@H](C)CO)C(=O)c2cc(NS(=O)(=O)c3cn(C)cn3)ccc2O[C@@H]1CN(C)C(=O)Nc1ccccc1
20	15[16.7 µM]	C[C@@H]1CN([C@H](C)CO)C(=O)CCCn2nncc2CO[C@H]1CN(C)C(=O)Nc1ccc(C(F)(F)F)cc1
21	-11[16.7 µM]	C[C@@H]1CN([C@@H](C)CO)S(=O)(=O)c2ccc(-c3ccccc3)cc2O[C@H]1CN(C)Cc1ccccc1C(=O)O
1	10[16.7 µM]	Cc1ccccc1S(=O)(=O)NCC[C@@H]1CC[C@@H](NC(=O)C2CCC2)[C@@H](CO)O1
-24	-7[16.7 µM]	CNC[C@H]1Oc2c(NC(=O)c3cnccn3)cccc2C(=O)N([C@H](C)CO)C[C@@H]1C
-13	1[16.7 µM]	C[C@@H]1CN([C@H](C)CO)C(=O)c2cccc(NC(=O)C3CC3)c2O[C@H]1CN(C)C(=O)Nc1ccccc1
9	-8[16.7 µM]	CCCN(C)C[C@H]1Oc2cc(C#C[C@H](C)O)ccc2S(=O)(=O)N([C@@H](C)CO)C[C@H]1C

Arranged by count of non-hydrogen atoms (ascending): 7 of the compounds above.
Yeast UUG start	Env fusion inh	structure
23	-1[16.7 µM]	CCCNC(=O)N1[C@H](CO)[C@H](c2ccc(C3=CCCC3)cc2)[C@@H]1C#N
1	10[16.7 µM]	Cc1ccccc1S(=O)(=O)NCC[C@@H]1CC[C@@H](NC(=O)C2CCC2)[C@@H](CO)O1
9	-8[16.7 µM]	CCCN(C)C[C@H]1Oc2cc(C#C[C@H](C)O)ccc2S(=O)(=O)N([C@@H](C)CO)C[C@H]1C
-13	1[16.7 µM]	C[C@@H]1CN([C@H](C)CO)C(=O)c2cccc(NC(=O)C3CC3)c2O[C@H]1CN(C)C(=O)Nc1ccccc1
-10	-5[16.7 µM]	COc1ccccc1CNC(=O)C[C@H]1C[C@@H]2c3cc(NC(=O)NC4CCCC4)ccc3O[C@@H]2[C@H](CO)O1
21	-11[16.7 µM]	C[C@@H]1CN([C@@H](C)CO)S(=O)(=O)c2ccc(-c3ccccc3)cc2O[C@H]1CN(C)Cc1ccccc1C(=O)O
12	11[16.7 µM]	Cc1noc(C)c1NC(=O)N(C)C[C@H]1OCCCC[C@@H](C)Oc2ccc(NS(=O)(=O)c3ccc(Cl)cc3)cc2C(=O)N([C@H](C)CO)C[C@@H]1C
